High-throughput results from PubChem BioAssay.
ALR H2O2 inh: inhibitors of human ALR sulfhydryl oxidase, primary screen, biochemical, H2O2 detection, HRP-luminol luminescence, single point; FAD-linked sulfhydryl oxidase ALR (Homo sapiens), P55789; AID 485317, 2010; inhibition, % (test concentration not listed); 3.8% of 290,000 active; purified ALR, DTT oxidation;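 active = mean and each replicate at 75% or more; inconclusive = only one of the two met; inactive = neither met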;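 note: stock transfer was 7.5 nL into about 7.5 µL; 0% = neutral wells and 100% = wells with inactivated enzyme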
Target sequence (P55789 whole entry, looked up): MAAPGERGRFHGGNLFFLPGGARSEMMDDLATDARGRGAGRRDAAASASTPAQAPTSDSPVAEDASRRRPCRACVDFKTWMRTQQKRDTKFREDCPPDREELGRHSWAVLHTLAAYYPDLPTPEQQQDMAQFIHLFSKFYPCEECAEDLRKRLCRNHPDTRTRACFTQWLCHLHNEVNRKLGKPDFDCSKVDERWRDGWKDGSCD
Calb FLC: C. albicans growth inhibition with fluconazole, primary screen, CaCi-2 strain, Alamar Blue fluorescence; C. albicans CaCi-2 (fluconazole-resistant clinical isolate) + fluconazole, 48 h; AID 1979, 2009; growth inhibition, % (concentration not given with the values); 0.57% of 300,000 active;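 active = most replicates above 75%; inconclusive = exactly half above 75%; inactive = most below 75%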;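 note: all wells also contain fluconazole at 8 µg/ml as a sub-toxic cotreatment; 0% = median of DMSO wells and 100% = median of geldanamycin control wells; wells of about 8 µL received 7.5 nL stock; the first replicate is given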
B2AR ag: beta2AR agonists driving receptor internalization, primary screen, cell-based, FAP fluorogen, flow cytometry. 0.43% of 340,000 active. Am2.2-beta2AR cells; reference of the scale not given here. Beta-2 adrenergic receptor (Homo sapiens), P07550. response, % (no concentration beside the values);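 active = response above a set limit, near 3 SD of response in nonfluorescent compounds, cut at about 42% in these data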;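 note: stock transfer was 100 nL into about 11 µL; a reference agonist was the positive control; negative values mostly stem from fluorescent compounds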
Target sequence (P07550 whole entry, looked up): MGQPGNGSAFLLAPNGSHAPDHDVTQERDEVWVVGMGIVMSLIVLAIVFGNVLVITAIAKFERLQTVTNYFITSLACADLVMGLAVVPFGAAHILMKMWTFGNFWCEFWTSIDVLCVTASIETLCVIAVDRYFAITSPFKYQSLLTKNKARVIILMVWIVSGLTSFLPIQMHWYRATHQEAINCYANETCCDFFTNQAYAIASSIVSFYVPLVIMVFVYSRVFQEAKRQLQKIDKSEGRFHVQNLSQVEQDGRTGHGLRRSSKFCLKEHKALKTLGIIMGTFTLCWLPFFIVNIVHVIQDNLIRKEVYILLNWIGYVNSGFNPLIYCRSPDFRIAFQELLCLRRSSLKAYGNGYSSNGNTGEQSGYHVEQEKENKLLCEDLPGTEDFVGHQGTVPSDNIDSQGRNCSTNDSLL
Bfl-1 A1 inh: caspase 3/7 activation in MEF A1-2A-BIM cells, primary screen, A1 inhibitor project, cell-based, luminescence, HTS. AID 2462, 2010. 0.066% of 330,000 active. Caspase-Glo 3/7 luminescence, 3 h; percent of clofoctol response, vehicle zero. caspase activation, % (test concentration not listed);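 active = over half of replicate activation scores above 10%, or exactly half above 10 with the replicate mean above 10; inconclusive = replicate mean below 10 yet half the replicates above 10; inactive = over half of replicates below 10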;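 note: wells of about 30 µL received 50 nL stock; many hits fall short of the cut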
LANA-H2A inh: blockers of LANA interaction with H2A/H2B – biochemical, FP readout, HTS, primary screen. Protein LANA1 (Human herpesvirus 8 type P (isolate GK18)), Q9QR71. cell-free LANA-H2A/H2B peptide, fluorescence polarization. inhibition, % (no concentration beside the values). 0.6% of 320,000 active. AID 2629, 2010; in the data active = inhibition mostly above about 10%, no sharp cut-off; inactive = mostly below about 6.7%;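 note: stock transfer was 7.5 nL into about 10 µL; 0% = median of vehicle wells and 100% = median of positive control wells; one replicate is shown; the record names a cut of 25% in any replicate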
T cruzi inh: inhibitors of intracellular T. cruzi growth, primary screen, luminescence, NIH3T3 host cells. T. cruzi beta-gal in NIH3T3, 90 h. inhibition, % (no concentration beside the values). 1.4% of 300,000 active. AID 1885, 2009;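 active = mean inhibition across valid replicates above about 55%, limit read from the data; inconclusive = mean below that limit but half or more replicates reach it; inactive = mean below it, under half of replicates reach it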;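 note: signal also drops with host cell toxicity which is not excluded here; 0% = plate median of DMSO wells and 100% = zero luminescence signal; higher percent means less beta-gal luminescence so fewer parasites; stock transfer was 50 nL into about 50 µL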
rRNA inh HTS: reduced GFP signal of wild-type E. coli, primary screen, bacterial rRNA inhibitor project, GFP/RFP fluorescence, OD600, single point; E. coli WT GFP vs humanized-ribosome RFP mutants, 24 h; active compounds read low; DMSO median 0, no signal -100; AID 720706, 2013; GFP signal change (wild-type ribosome), % (no concentration beside the values); 1.6% of 350,000 active;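 active = significant combined selectivity score with lowered wild-type GFP, culture density cut under 30%, mutant RFP and density less affected; inactive = any of these conditions unmet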; note: one replicate is shown; some compounds called inactive have numbers as strong as hits
Beta apoptosis: inhibitors of cytokine-induced beta cell apoptosis, primary screen, luminescence; protection from apoptosis, % (no concentration beside the values); AID 435005, 2010; INS-1E cytokine-induced death, ATP luminescence, 48 h; percent of positive-control rescue, neutral wells zero; 0.8% of 300,000 active;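 active = all replicates at 75% or more, or half of them and the mean; inconclusive = half reach 75% but not the mean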;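 note: 0% = cytokine-treated negative control wells and 100% = positive control rescue; higher means more ATP so stronger rescue from cytokine killing; wells of about 40 µL received 100 nL stock; the first replicate is given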
rRNA inh HTS OD600: recorded beside rRNA inh HTS, whose call it bears; OD600 change, %; measured here: OD600 growth;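 optical density of the mix in the first replicate; 0 = DMSO median and -100 = no signal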
rRNA inh HTS RFP: further read-out of rRNA inh HTS, marked with its call; RFP signal change, %; measured here: RFP humanized mutant strains;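 first replicate; 0 = DMSO median and -100 = no signal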
Numbers without * were called inactive; ? = inconclusive; / = not tested or not shown; & = joins results of further samples. This is a subset. The share of hits here may be higher or lower than overall.

Preview (7 entries):
1) O=C(Nc1cccc(O)c1)c1cccc(NC(=O)c2cccs2)c1
2) O=C1CCC(=O)N1CC(O)COc1ccccc1 (configuration not stated)
3) COc1ccc(CN(CC(=O)NC(C)C)C(=O)CCC(=O)Nc2nccs2)cc1
4) COC(=O)C(C)Oc1ccc2c(-c3cccc([N+](=O)[O-])c3)cc(=O)oc2c1 (configuration not stated)
5) Cc1ccc(C)c(C(=O)C(C)Sc2nc3nn(-c4ccccc4)c(=O)c-3c3n2CCCCC3)c1 (configuration not stated)
6) COC(=O)N/N=C\c1cccc(OC(=O)c2cccs2)c1
7) Cc1ccc(S(=O)(=O)NCc2ccc(C(=O)N3CCCC3)cc2)cc1
compound no.	1	2	3	4	5	6	7
Bfl-1 A1 inh	1.2	-0.3	-0.1	?	0.7	-0.8	1.8
rRNA inh HTS OD600	-11	14	12	/	6	-6	/
B2AR ag	-18	-4	-1	-3	1	-7	-1
rRNA inh HTS	-10	14	2	/	8	-4	/
Calb FLC	-3	33	0	-2	3	?	1
T cruzi inh	-5	-10	-6	-22	9	-6	-1
rRNA inh HTS RFP	3.6	-1.2	0.4	/	-4.4	-2.7	/
ALR H2O2 inh	37	0	-8	3	1	-4	1
Beta apoptosis	-3	-3	2	-3	4	-2	2
LANA-H2A inh	0.0	1.1	2.2	-3.8	2.2	0.2	2.5

All compounds of this part, previewed entries included:
1) O=C(Nc1cccc(O)c1)c1cccc(NC(=O)c2cccs2)c1
2) O=C1CCC(=O)N1CC(O)COc1ccccc1 (configuration not stated)
3) COc1ccc(CN(CC(=O)NC(C)C)C(=O)CCC(=O)Nc2nccs2)cc1
4) COC(=O)C(C)Oc1ccc2c(-c3cccc([N+](=O)[O-])c3)cc(=O)oc2c1 (configuration not stated)
5) Cc1ccc(C)c(C(=O)C(C)Sc2nc3nn(-c4ccccc4)c(=O)c-3c3n2CCCCC3)c1 (configuration not stated)
6) COC(=O)N/N=C\c1cccc(OC(=O)c2cccs2)c1
7) Cc1ccc(S(=O)(=O)NCc2ccc(C(=O)N3CCCC3)cc2)cc1
8) Cc1cc(=O)oc2cc(OC(C)C)ccc12
compound no.	1	2	3	4	5	6	7	8
Bfl-1 A1 inh	1.2	-0.3	-0.1	?	0.7	-0.8	1.8	0.1
rRNA inh HTS OD600	-11	14	12	/	6	-6	/	/
B2AR ag	-18	-4	-1	-3	1	-7	-1	-8
rRNA inh HTS	-10	14	2	/	8	-4	/	/
Calb FLC	-3	33	0	-2	3	?	1	-3
T cruzi inh	-5	-10	-6	-22	9	-6	-1	1
rRNA inh HTS RFP	3.6	-1.2	0.4	/	-4.4	-2.7	/	/
ALR H2O2 inh	37	0	-8	3	1	-4	1	-12
Beta apoptosis	-3	-3	2	-3	4	-2	2	-8
LANA-H2A inh	0.0	1.1	2.2	-3.8	2.2	0.2	2.5	0.4

9) CCOC(=O)N1CCC(NC(=O)C2CCCN(Cc3nc(-c4cccc(C)c4)oc3C)C2)CC1 (configuration not stated)
10) O=C(CN1c2ccccc2Sc2ccccc21)NNC(=S)Nc1ccc(Cl)cc1
11) Cc1ccc(OCCCn2c(=O)sc3ccccc32)cc1
12) CCCCN(C(=O)c1cc(S(=O)(=O)N2CCCCCC2)ccc1OC)c1c(N)n(CCC)c(=O)[nH]c1=O
13) CCCCNC(=O)OC(C)CNC(=O)OC (configuration not stated)
14) O=C(NNC(=O)c1cccs1)c1ccco1
15) COc1ccc(NC(=O)C2CCC(CNc3c(N4CCCCC4)c(=O)c3=O)CC2)cc1OC (configuration not stated)
16) Cc1ccc(-c2nn3c(C)nnc3c3ccccc23)cc1S(=O)(=O)NC(C)(C)CO
compound no.	9	10	11	12	13	14	15	16
Bfl-1 A1 inh	-1.2	0.5	-0.4	0.8	-0.4	-0.4	-0.2	-0.7
rRNA inh HTS OD600	-2	-13*	/	12	/	10	12&5	-10
B2AR ag	-2	5	-1	4	5	0	4&1	-8
rRNA inh HTS	-5	-48*	/	3	/	14	12&6	-9
Calb FLC	0	-4	-8	4	-4	-3	-2	14
T cruzi inh	31	2	2	0	-10	1	-20	-1
rRNA inh HTS RFP	2.8	-12*	/	2.4	/	4.8	1.5&0.4	-1.3
ALR H2O2 inh	5	/	-4	-33	-14	1	-7	-14
Beta apoptosis	56	9	-1	-1	-13	-5	-8	/
LANA-H2A inh	-5.4	-0.9	4.9	4.9	5.1	5.7	3.7	0.3

17) COc1ccc2c(C(=O)CN3CCN(CCO)CC3)c[nH]c2c1
18) CC(=O)Nc1nc(C)c(CCC2OCCO2)c(=O)[nH]1
19) Cn1c(=O)n(CC(N)=O)c(=O)c2c1nc1n2CCCN1Cc1ccccc1
20) O=C(COC(=O)C1CCN(c2ccc(C(F)(F)F)cn2)CC1)Nc1ccc(Cl)cc1
21) CCNC(=S)N(CCc1c(C)[nH]c2ccc(Cl)cc12)Cc1cccnc1
22) CSc1n[nH]c(-c2sccc2OCc2ccc(C)cc2)n1
23) O=C(C[n+]1cc(-c2ccc(Cl)cc2)n2c1CCC2)Nc1nc(-c2ccccc2)cs1
24) Cc1cccc(C(=O)N2CCN(c3ccc(N4CCOCC4)nn3)CC2)c1
compound no.	17	18	19	20	21	22	23	24
Bfl-1 A1 inh	0.6	0.1	-1.6	-0.3	0.0	0.3	-0.4	0.5
rRNA inh HTS OD600	/	7	9	-40	-79	/	-28*	0
B2AR ag	3	-4	1	4	7	-8	2	-7
rRNA inh HTS	/	5	11	-28	-53	/	-44*	5
Calb FLC	11	-6	4	3	/	10	-2	3
T cruzi inh	44	-11	-13	-2	53	-10	-23	18
rRNA inh HTS RFP	/	1.7	-0.3	-0.9	-14	/	-4.9*	-3.0
ALR H2O2 inh	-9	/	-3	-4	55	-3	94*	/
Beta apoptosis	-5	-10	-12	-7	0	2	5	-6
LANA-H2A inh	-6.4	2.5	1.5	1.0	0.9	0.4	-8.3	-1.7

25) CC(NC(=O)c1cc(S(=O)(=O)N2CCOCC2)ccc1F)c1ccc(-n2ccnc2)cc1 (configuration not stated)
26) COc1ccc(C(CNC(=O)CNC(=O)c2ccccc2Cl)N2CCCC2)cc1 (configuration not stated)
27) Cn1c(=O)c2c(nc(N3CCN(C(=O)c4ccco4)CC3)n2CCSc2ncccn2)n(C)c1=O
28) O=C(Nc1ccc2c(c1)OCCO2)C1CCCC1
29) CN(C)CCCNC(=O)/C=C/c1ccc2c(c1)OCO2
30) O=C(CN1C(=O)NC2(CCCCC2)C1=O)Nc1ccc(S(=O)(=O)N2CCOCC2)cc1
31) CC(C)N(C)Cc1nnnn1CC(=O)N(C)Cc1ccc(F)cc1
32) COc1ccccc1N(CC(=O)N/N=C/c1ccc(SC)cc1)S(C)(=O)=O
compound no.	25	26	27	28	29	30	31	32
Bfl-1 A1 inh	-0.2	-0.8	-0.4	-1.2	2.6	1.8	0.1	0.3
rRNA inh HTS OD600	5	10	10	19	/	/	14	/
B2AR ag	-3	-1	-10	-9	-2	-5	1	1
rRNA inh HTS	8	8	5	0	/	/	15	/
Calb FLC	/	-5	0	/	2	/	6	2
T cruzi inh	/	-5	0	/	45	-26	-7	-15
rRNA inh HTS RFP	2.0	-2.5	0.3	0.8	/	/	2.2	/
ALR H2O2 inh	-1	2	-5	-3	-3	-7	-2	5
Beta apoptosis	-3	0	2	6	-2	0	/	-10
LANA-H2A inh	2.7	-0.4	-0.8	-344	-1.3	-0.3	-0.4	0.0

Entries from the list above that have fluorine (three):
20) O=C(COC(=O)C1CCN(c2ccc(C(F)(F)F)cn2)CC1)Nc1ccc(Cl)cc1
25) CC(NC(=O)c1cc(S(=O)(=O)N2CCOCC2)ccc1F)c1ccc(-n2ccnc2)cc1 (configuration not stated)
31) CC(C)N(C)Cc1nnnn1CC(=O)N(C)Cc1ccc(F)cc1
compound no.	20	25	31
Bfl-1 A1 inh	-0.3	-0.2	0.1
rRNA inh HTS OD600	-40	5	14
B2AR ag	4	-3	1
rRNA inh HTS	-28	8	15
Calb FLC	3	/	6
T cruzi inh	-2	/	-7
rRNA inh HTS RFP	-0.9	2.0	2.2
ALR H2O2 inh	-4	-1	-2
Beta apoptosis	-7	-3	/
LANA-H2A inh	1.0	2.7	-0.4

Next entries follow.
33) COC(=O)C(Cc1cnc(Cl)s1)(C(=O)OC)c1ccc([N+](=O)[O-])cc1[N+](=O)[O-]
34) Cc1ccccc1NC(=O)c1cc2ccccn2n1
35) Cc1ccc(S(=O)(=O)N2CCCC2)cc1C(=O)N1CCN(Cc2ccccc2)CC1
36) COc1cc(F)c(C(=O)NC(C)(C)CO)cc1OC
37) O=C(C1=C(O)C(=O)N(CC2CCCO2)C1c1ccccc1Cl)c1ccco1 (configuration not stated)
38) O=C(NCC(=O)N1CCN(S(=O)(=O)c2cccs2)CC1)c1ccc(Cl)cc1
39) Cn1c2ccccc2c2ncn(Cc3ccc(F)cc3)c(=O)c21
40) CCCCNC(=O)C1CC(c2ccccc2[N+](=O)[O-])=NO1 (configuration not stated)
41) N#CC(=C=[N-])C1=C(C#N)C(c2ccccc2F)C([n+]2ccccc2)C(O)(C2CC2)N1 (configuration not stated)
42) O=C(NCc1ccc(Cl)cc1)C1CCN(C(=O)c2ccco2)CC1
43) CN(C)c1nc(OCCOC(=O)Nc2ccc(Cl)cc2Cl)nc(N(C)C)n1
compound no.	33	34	35	36	37	38	39	40	41	42	43
Bfl-1 A1 inh	-0.1	-8.9	-0.6	-0.1	-0.4	0.2	0.1	0.6	1.1	-0.3	0.4
rRNA inh HTS OD600	/	13	/	7	1	6	8	8	9	1	-2
B2AR ag	2	6	3	0	6	-7	-3	3	8	3	0
rRNA inh HTS	/	14	/	6	4	4	9	9	12	5	0
Calb FLC	12	-18	4	7	0	13	10	5	-9	-1	-2
T cruzi inh	57*	-10	1	-7	-7	-5	29	-7	-10	-1	11
rRNA inh HTS RFP	/	6.5	/	3.1	-2.7	0.9	-0.4	-9.8	16	-2.8	-4.5
ALR H2O2 inh	-18	/	-1	-12	-9	-6	-4	-2	-8	-8	2
Beta apoptosis	-2	0	3	0	-1	1	/	-4	-5	-2	-4
LANA-H2A inh	-1.2	-1.1	1.6	0.8	-4.1	-0.2	0.9	0.7	-4.2	-2.0	-1.5

Some values from the results shown:
B2AR ag, no. 35 : 3
T cruzi inh, no. 34 : -10
